nsP2pro inh: Primary qHTS for inhibitors of NSP2Pro chikungunya virus (CHIKV) | AID 1964107, 2024 | FRET peptide cleavage, nsP2pro, fluorescence 1 h | 1.1% of 31,000 active | Potency, µM (doses to about 24.9 µM), inactives show top-dose activity change, negative = inhibition, usual class: inhibitors | Polyprotein P1234 (Chikungunya virus (strain S27-African prototype)), Q8JUX6; active means well fitted inhibition curve with a large enough effect; inconclusive means small, poorly fitted or top-dose-only effect; inactive means no such curve, though single readings can be large or run the other way; also: nearly all actives have a fitted effect of over 60% in size; a reference inhibitor and vehicle were the controls
Starred values were filed as active, the others as inactive; ? = inconclusive; & = joins results of further samples; [ ] = dose if it differs, or a comment. % is scaled to controls: 0 for no effect and ±100 for the full control effect; potency is read from the fitted curve at half-maximal effect.

SMILES	nsP2pro inh
c1cc(NCCc2c[nH]c3ccccc23)cc(Nc2ccncc2)c1	48%
CCOC(=O)c1ccc(OCCN2C[C@H](O)[C@@H](O)[C@H](O)[C@H]2CO)cc1	?
Nc1nc(OCc2cc(Br)cs2)c2[nH]cnc2n1	32%[activator]
C/C(=C1\CCOC(=O)S1)N(C=O)Cc1cnc(C)nc1N	5%
CN(C)C/C=C/C(=O)Nc1cc2c(Nc3ccc(F)c(Cl)c3)ncnc2cc1O[C@H]1CCOC1	298%[activator]
Nc1nc2c(cnn2CCCc2ccc(O)cc2)c2nc(-c3ccco3)nn12	-9%
COC(=O)c1ccc(O)cc1	6%
COc1ccc(-n2nc(C(N)=O)c3c2C(=O)N(c2ccc(N4CCCCC4=O)cc2)CC3)cc1	-24%&-10%
O=S(=O)(c1cccc2ccccc12)n1ccc2ccc(N3CCN4CCCC4C3)cc21 (stereo not given)	61%[activator]
CC12CCC(CC1)C(C)(C)O2	-8%
CCCCC1CCN(CCCN2C(=O)CCc3ccccc32)CC1	-10%
Cc1ccccc1C(=O)Nc1ccc(C(=O)N2CCC[C@@H](O)c3cc(Cl)ccc32)c(C)c1	14%
Cc1nc(C(=O)NCC(=O)O)c(O)c2ccc(Oc3ccccc3)cc12	?
C[C@@H]1CCN(C(=O)N2CCCC2)C[C@@H]1N(C)c1ncnc2[nH]ccc12	35%
CC(CC(C#N)(c1ccccc1)C(C)C)N(C)C (stereo not given)	-8%
Cn1c2ccc(F)cc2c2c(C(=O)N3CCCC3)cn(-c3ccccc3)c(=O)c21	-6%
NC(N)=NC(=O)c1cnn(-c2cccc3ncccc23)c1C1CC1	-3%
O=C(O)c1ccc(S(=O)(=O)N(Cc2ccc(OC(F)(F)F)cc2)c2ncc(C(F)(F)F)cc2Cl)cc1	-16%
C=CC1=C(C(=O)O)N2C(=O)[C@@H](NC(=O)/C(=N\O)c3csc(N)n3)[C@H]2SC1 (stereo in doubt)	-25%
COc1ccc(/C=C/C(=O)Nc2ccccc2C(=O)O)cc1OC	-7%&-5%
CC(=O)Nc1ccc(C(=O)O)cc1	2%
COCCCOc1cc(C[C@@H](C[C@H](N)[C@@H](O)C[C@H](C(=O)NCC(C)(C)C(N)=O)C(C)C)C(C)C)ccc1OC	?
N[C@@H](CC(=O)Nc1ccc(Oc2cc(F)c(F)cc2Br)cc1)C(=O)O	5%
Cn1c(=O)cc(N2CCCC(N)C2)n(Cc2ccccc2C#N)c1=O (stereo not given)	-1%
COc1ccc(-n2nc(CCC(=O)N(C)O)cc2-c2ccc(Cl)cc2)cc1	11%
COc1ccc([C@@H]2N[C@H](C(=O)O)Cc3c2[nH]c2ccccc32)cc1CN1CCN(c2ccccc2F)CC1	53%[activator]
Cc1ccc(C(=O)Oc2ccc(C(O)CNC(C)(C)C)cc2OC(=O)c2ccc(C)cc2)cc1 (stereo not given)	-25%
NC(=O)c1cn(Cc2c(F)cccc2F)nn1	17%
CC(C)c1cc(CNc2nc(Nc3cc(C4CC4)[nH]n3)cc(N3CCN(C)CC3)n2)on1	137%[activator]
CN1CCN(C(c2ccccc2)c2ccccc2)CC1	?
Cc1cc(Nc2cc(N3CCN(C)CC3)nc(Sc3ccc(NC(=O)C4CC4)cc3)n2)n[nH]1	194%[activator]
CC(=O)c1ccc(S(=O)(=O)NC(=O)NC2CCCCC2)cc1	-5%
Nc1nc(=O)n([C@@H]2O[C@H](CO)[C@@H](O)[C@@H]2F)cc1I	-13%
Cn1cc(-c2ccc3c(c2)CCN3C(=O)Cc2cccc(C(F)(F)F)c2)c2c(N)ncnc21	30%
COc1c(Cl)cc2c([nH]c3cnccc32)c1NC(=O)c1cccnc1C	54%&2%[activator]
N#Cc1ccc(C(=O)N2CCC3(CC2)N=C(N)c2c(F)ccc(F)c2N3)cn1	-22%
CC(=O)OCC1=C[C@@H]2OC(=O)C3=CO[C@@H](O[C@@H]4O[C@H](CO)[C@@H](O)[C@H](O)[C@H]4O)[C@H]1[C@@H]32	-4%[10 µM]
CN1CCC(c2c[nH]c3ccc(NC(=O)c4ccc(F)cc4)cc23)CC1	16%
CCn1c(N)c(C(=O)NC)c(=O)c2ccc(C#C[C@@](C)(O)COC)nc21	-11%
CN1CCOC(c2ccccc2)c2ccccc2C1 (stereo not given)	-11%&12%
Fc1ccc(-c2nc(C3CCNCC3)sc2-c2ccnc(NC3CC3)n2)cc1	13%
Cc1cc(CC(C)CC(C)(C)C)n(O)c(=O)c1 (stereo not given)	68%[activator]
CN(C)C(=O)C(O)C(Cc1ccccc1)NC(=O)c1cc2cc(Cl)ccc2[nH]1 (stereo not given)	-11%
Cc1c(I)c(=O)n(-c2ccccc2)n1C	7%
Nc1cccc(CNC(=O)c2ccc(Oc3ccc(OCc4cccc(F)c4)cc3)nc2)c1	50%[activator]
CN(C)CCOC(C)(c1ccccc1)c1ccccn1 (stereo not given)	-3%
CCCCNc1ncc(C(=O)NCc2ccc(-n3ccnc3)cc2)c(NC2CCC(O)CC2)n1 (stereo not given)	288%[activator]
COc1ccc(C2=NC(c3ccc(Cl)cc3)C(c3ccc(Cl)cc3)N2C(=O)N2CCNC(=O)C2)c(OC(C)C)c1 (stereo not given)	10%
CC(=O)NC(Cc1ccccc1)C(=O)O (stereo not given)	-25%
O=C1c2c(O)cccc2[C@H]([C@@H]2O[C@H](CO)[C@@H](O)[C@H](O)[C@H]2O)c2cc(CO)cc(O)c21	?
Cc1[nH]n2c(=O)cc(-c3ccc(Cl)cc3)nc2c1-c1ccccc1	289%[activator]
O=C1CCC(c2ccccc2)(C2CCN(Cc3ccc(I)cc3)CC2)C(=O)N1 (stereo not given)	-8%
COc1cc(Nc2nc3ccccc3nc2NS(=O)(=O)c2cccc(NC(=O)c3ccc(C)c(OC)c3)c2)cc(OC)c1	1%
c1cc(OCCN2CCCCC2)cc(-c2n[nH]c3ccc(-c4ncn[nH]4)cc23)c1	105%[activator]
CCOC(=O)c1ccc(N)cc1	-7%
CN(C)CC#CCCC(=O)C(O)(c1ccccc1)C1CCC1 (stereo not given)	-7%
COc1cc2ncnc(Nc3cccc(O)c3)c2cc1OC	19%
Cc1cc(Cn2cnc3c2CC(C(=O)O)N(C(=O)C(c2ccccc2)c2ccccc2)C3)ccc1N(C)C (stereo not given)	-13%
Cc1oc(=O)oc1CN1CCN(c2cc3c(cc2F)c(=O)c(C(=O)O)c2n3C(C)S2)CC1 (stereo not given)	-8%&0%
COc1ccc(C(=O)NCc2ccc(OCCN(C)C)cc2)cc1OC	1%

Filtered by structure: the entries above with a tert-butyl group
SMILES	nsP2pro inh
Cc1ccc(C(=O)Oc2ccc(C(O)CNC(C)(C)C)cc2OC(=O)c2ccc(C)cc2)cc1 (stereo not given)	-25%
Cc1cc(CC(C)CC(C)(C)C)n(O)c(=O)c1 (stereo not given)	68%[activator]

Additional structures.
SMILES	nsP2pro inh
Cc1nc(N)sc1-c1ccnc(Nc2ccc(N3CCOCC3)cc2)n1	-5%
COc1cccc(C(=O)N2CCN(C(=O)COc3cccc(C)c3)CC2)c1OC	21%
Cc1nc2cc(-c3cc(F)cc(C#N)c3)ccc2s1	-6%
CCN1CCN(Cc2ccc(Nc3ncc(F)c(-c4cc(F)c5nc(C)n(C(C)C)c5c4)n3)nc2)CC1	162%[activator]
Cc1ncc(Cl)cc1NCc1ccc(C(=O)NC(CC2CCCC2)C(=O)NC2CC2)s1 (stereo not given)	-4%
O=C(O)CC1CCC(c2ccc(NC(=O)c3nnc(Nc4ccc(F)c(F)c4)o3)cc2)CC1 (stereo not given)	6%
CCN(CC)CCNC(=O)c1cc(Cl)c(N)cc1OC	?
C=CC(=O)Nc1cccc(Nc2nc(Nc3ccc(N4CCN(C(C)=O)CC4)cc3OC)ncc2C(F)(F)F)c1	?
O=C(NCCCn1ccnc1)c1cc(-c2ccco2)on1	10%
CNc1nc(Nc2ccc(C(=O)N3CCOCC3)cc2OC)ncc1Cl	-7%
COc1ccccc1CN[C@H]1CCCN[C@H]1c1ccccc1	-4%
CC(C)=CCC[C@](C)(O[C@@H]1O[C@H](CO)[C@@H](O)[C@H](O)[C@H]1O)[C@H]1CC[C@]2(C)[C@@H]1[C@H](O)C[C@@H]1[C@@]3(C)CC[C@H](O[C@@H]4O[C@H](CO)[C@@H](O)[C@H](O)[C@H]4O[C@@H]4O[C@H](CO)[C@@H](O)[C@H](O)[C@H]4O)C(C)(C)[C@@H]3CC[C@]12C	-7%
O=C(Nc1cc2cc[nH]c2cn1)c1ccccc1	-18%
CS(=O)(=O)Nc1ccc2oc3c(OC(F)F)ccc(C(=O)Nc4c(Cl)cncc4Cl)c3c2c1	-3%
Cc1c(NC(=O)c2cccnc2)c(=O)n(-c2ccccc2)n1C	-8%
OCCN1CCN(CCCN2c3ccccc3Sc3ccc(Cl)cc32)CC1	20%
COc1ccc(Cn2ccc3ccc(C(=O)NO)cc32)cc1	?
O=C(CO)N1CCC(c2[nH]nc(-c3ccc(Cl)cc3)c2-c2ccncn2)CC1	-4%
Cc1ccccc1C(=O)Nc1ccc(C(=O)N2CCCC(O)c3cc(Cl)ccc32)c(C)c1 (stereo not given)	-1%
Cc1cnc(NC(=O)Nc2cc(Br)c(C)cc2OCC2CNCCO2)cn1 (stereo not given)	33%

Some of these compounds in order of SMILES length, lowest first:
SMILES	nsP2pro inh
Cc1nc(N)sc1-c1ccnc(Nc2ccc(N3CCOCC3)cc2)n1	-5%
CCN1CCN(Cc2ccc(Nc3ncc(F)c(-c4cc(F)c5nc(C)n(C(C)C)c5c4)n3)nc2)CC1	162%[activator]
COc1ccc([C@@H]2N[C@H](C(=O)O)Cc3c2[nH]c2ccccc32)cc1CN1CCN(c2ccccc2F)CC1	53%[activator]

Remaining list, next part.
SMILES	nsP2pro inh
CCCNC(C)C(=O)Nc1c(C)csc1C(=O)OC (stereo not given)	-5%
CCCn1cnc2c1c(=O)n(CCCCC(C)=O)c(=O)n2C	14%
CC(Oc1cc(-n2cnc3ccc(CN4CCN(C)CC4)cc32)sc1C(N)=O)c1ccccc1C(F)(F)F (stereo not given)	89%[activator]
C[C@@H]1COC(Nc2ccc3ncnc(Nc4ccc(OCc5nccs5)c(Cl)c4)c3c2)=N1	212%[activator]
COc1ccc(-c2cc3c(C)nc(N)nc3n(C3CCC(OCCO)CC3)c2=O)cn1 (stereo not given)	-2%
CC(C)Nc1cc(C(F)(F)F)cc2nc(NC(=O)c3cccnc3)nn12	-8%
COc1cc(C(=O)OC(COCCC(C)C)CN2CCOCC2)cc(OC)c1OC (stereo not given)	-1%
CCC(C)n1ncn(-c2ccc(N3CCN(c4ccc(OCC5COC(Cn6cncn6)(c6ccc(Cl)cc6Cl)O5)cc4)CC3)cc2)c1=O (stereo not given)	26%[10 µM]
O=C(Nc1ccc(OC(F)(F)F)cc1)c1sccc1NCc1ccnc2ccccc12	1%
COc1cc2c(cc1OC)C(=O)C(CC1CCN(Cc3ccccc3)CC1)C2 (stereo not given)	-2%
COc1cnc(-c2ccc(Cn3c(CC(C)(C)C(=O)O)c(SC(C)(C)C)c4cc(OC[C@@H]5Cc6ccccc6N5C(C)=O)ccc43)cc2)nc1	60%[activator]
CCCCN(CCCC)C(=O)CN1C[C@H](c2ccc3c(c2)OCO3)[C@@H](C(=O)O)[C@@H]1c1ccc(OC)cc1	?
CC1(C)O[C@H]2CC(=O)OC[C@]23[C@H]2CC[C@@]4(C)[C@H](c5ccoc5)OC(=O)[C@H]5O[C@]54[C@]2(C)C(=O)C[C@@H]13	-13%
COC(=O)CC1CC(c2ccc(O)cc2)=NO1 (stereo not given)	-6%
O=C(CNC(=O)c1cccc(C(F)(F)F)c1)N[C@@H]1CCN(Cc2ccc(Cl)cc2)C1	-12%
CC[N+](C)(CC)CCOC(=O)C(O)(c1ccccc1)C1CCCCC1 (stereo not given)	2%
O=C(c1ccc(C(=O)N2CCC(N3CCCC3)CC2)c(Nc2ccccc2)c1)N1CCC(N2CCCC2)CC1	25%
Oc1ccc(/C=C/c2cc(O)cc(O)c2)cc1	8%
COc1cc(NS(=O)(=O)c2ccc(N)cc2)nc(C)n1	-7%
CCCCC(O)c1ccccc1 (stereo not given)	0%

Two of the compounds above, as labelled records:
COc1cc2c(cc1OC)C(=O)C(CC1CCN(Cc3ccccc3)CC1)C2 (stereo not given)
- nsP2pro inh = -2%
CC1(C)O[C@H]2CC(=O)OC[C@]23[C@H]2CC[C@@]4(C)[C@H](c5ccoc5)OC(=O)[C@H]5O[C@]54[C@]2(C)C(=O)C[C@@H]13
- nsP2pro inh = -13%

More entries.
SMILES	nsP2pro inh
Cc1ccc2[nH]c(=O)c(C3=NN(C(=O)CCC(=O)O)C(c4ccc(Br)cc4)C3)c(-c3ccccc3)c2c1 (stereo not given)	21%
CCOc1ccc(C(=O)OCCN(CC)CC)cc1	-1%
COc1cc(C(=O)NC(=S)Nc2cccc(NC(=O)c3ccccc3)c2)cc(OC)c1OC	2%
COc1cccc(OC)c1-c1ccc(C[C@H](NC(=O)c2c(Cl)cccc2Cl)C(=O)O)cc1	-5%
O=C1Cc2c([nH]c3ccc(Br)cc23)-c2ncccc2N1	?
O=C(c1ccc(F)cc1)C1CCN(CCn2c(=O)[nH]c3ccccc3c2=O)CC1	4%&13%
Cc1cc(-c2nncc3c(C(C)(C)C)c(OCc4ncnn4C)nn23)no1	-4%
N#Cc1ccc2ncnc(NCCc3ccccc3)c2c1	?
NC(N)=NCCC[C@H](N)C(=O)O	-3%[2.68 µM]
CC(COc1ccccc1)NC(C)C(O)c1ccc(O)cc1 (stereo not given)	?
O=C(NCc1ccco1)c1ccc2c(c1)N(Cc1cccc(Cl)c1)C(=O)c1ccccc1S2=O (stereo not given)	-30%
COc1ccccc1N1CCN(CCCNc2cc(=O)n(C)c(=O)n2C)CC1	?
c1ccc(CN(CC2=NCCN2)c2ccccc2)cc1	-2%&1%

Compound activity as filed in PubChem.

This is a subset; count on the stated rates, not on these rows.
